High-throughput results deposited in PubChem by several laboratories.
MT1-MMP act inh = inhibitors of human MT1-MMP activation. HT1080 RFP-PRO-GFP cells, GFP/RFP ratio fluorescence, overnight; percent of plate control window, DMSO zero. GFP/RFP ratio change, % at 20 µM. hit rate 0.061% among 360,000. AID 651647;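 active means GFP/RFP ratio change of at least 30% with cell ATP level not reduced by more than half and red fluorescence within 50% of control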; further: strong numbers were not always called active
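Assay system: RFP-PRO-GFP reporter HT1080 cells; read-out basis: GFP/RFP fluorescence ratio; benchmarks: DMSO wells and RFP-L50D-GFP cells; doses: 20 µM single dose, 1% DMSO; schedule: overnight cell settling, then overnight compound exposure, 37 °C, 5% CO2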
eIF4H inh = inhibitors of RNA binding by human eIF4H; inhibition, % at 35 µM; Q15056; hit rate 0.94% among 290,000; eIF4H fluorescence polarization binding assay;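 active means 50% or more with normal probe brightness, or confirmed in later tests; about a fifth of its hits are not listed in these tables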;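 further: calls also rest on retests at 20 µM and on dose response follow-up; 0% = protein and probe with vehicle and 100% = probe without protein; strong numbers were not always called active; many hits fall short of the cut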
HIV Env fusion = inhibitors of HIV Env-mediated cell fusion; HeLa-JRFL Env/CEM21 cell fusion, luciferase; inhibition, % at 12.3 µM; AID 651610; hit rate 1.1% among 360,000;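 active means mean replicate inhibition score of at least 50 and every replicate individually at or above 50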;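 further: 0% = plate neutral controls and 100% = maraviroc near 300 nM; one replicate is shown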
PABP polyA inh = PABP-poly(A) binding inhibition | P11940 | PABP-poly(A) RNA binding, fluorescence polarization | hit rate 1% among 290,000 | inhibition, % at 35 µM | AID 2014;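 active means 50% or more with normal probe brightness, or confirmed in later tests; about a fifth of its hits are not listed in these tables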;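 further: calls also rest on retests at 20 µM and on dose response follow-up; controls were probe without protein and protein plus probe with vehicle; some compounds called inactive have numbers as strong as hits; many hits fall short of the cut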
Target sequence (P11940 whole entry, looked up): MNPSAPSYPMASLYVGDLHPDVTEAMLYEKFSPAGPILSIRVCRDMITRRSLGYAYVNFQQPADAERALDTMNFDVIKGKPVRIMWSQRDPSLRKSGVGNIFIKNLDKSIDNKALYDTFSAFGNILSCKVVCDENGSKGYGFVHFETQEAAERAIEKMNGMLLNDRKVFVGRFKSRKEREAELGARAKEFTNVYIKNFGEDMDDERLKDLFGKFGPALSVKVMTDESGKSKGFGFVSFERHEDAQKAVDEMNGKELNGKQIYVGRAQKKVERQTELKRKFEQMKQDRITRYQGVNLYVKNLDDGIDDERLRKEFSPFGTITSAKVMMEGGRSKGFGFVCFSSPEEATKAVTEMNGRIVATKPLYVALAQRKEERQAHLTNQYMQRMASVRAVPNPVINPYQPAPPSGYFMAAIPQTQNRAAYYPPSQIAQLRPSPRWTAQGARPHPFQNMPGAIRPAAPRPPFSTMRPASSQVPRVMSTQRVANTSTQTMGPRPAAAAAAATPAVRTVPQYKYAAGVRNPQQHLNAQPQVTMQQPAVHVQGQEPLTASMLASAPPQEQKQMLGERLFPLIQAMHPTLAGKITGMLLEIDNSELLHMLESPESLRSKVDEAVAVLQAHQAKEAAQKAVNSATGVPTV
CSC inhib = blocks cancer stem cells; cancer stem cell-like cells viability, luminescence; inhibition, % at 7.5 µM; hit rate 1.1% among 300,000;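 active means mean at 75% or more and at least half the replicates too; tested in HMLE shEcad cells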;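 further: 0% = median of negative and 100% = median of positive control wells; the first replicate is given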
Yeast UUG start = modulators of start codon recognition fidelity in yeast. S. cerevisiae UUG-firefly luciferase reporter, luminescence/redox ratio. activity score, % at 18.7 µM. hit rate 0.13% among 350,000. AID 602363;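 active means replicate mean at a twofold rise or more, about +100% in these data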;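 further: firefly luciferase made from a UUG start codon reports start codon fidelity; reporter light over untreated wells divided by growth signal over untreated wells; some hits fall short of that in this replicate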
Rce1 inhib = yeast Ras-converting enzyme inhibition. Q03530. yeast membranes, quenched prenylated peptide cleavage fluorescence. hit rate 0.27% among 290,000. calls only. AID 2563;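 active means fall in fluorescence gain of 50% or more versus controls, with final raw signal at or below 3038400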;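 further: plate controls were neutral control wells for no effect and wells lacking membranes for full effect; tested at 10 µM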
Target sequence (Q03530 whole entry, looked up): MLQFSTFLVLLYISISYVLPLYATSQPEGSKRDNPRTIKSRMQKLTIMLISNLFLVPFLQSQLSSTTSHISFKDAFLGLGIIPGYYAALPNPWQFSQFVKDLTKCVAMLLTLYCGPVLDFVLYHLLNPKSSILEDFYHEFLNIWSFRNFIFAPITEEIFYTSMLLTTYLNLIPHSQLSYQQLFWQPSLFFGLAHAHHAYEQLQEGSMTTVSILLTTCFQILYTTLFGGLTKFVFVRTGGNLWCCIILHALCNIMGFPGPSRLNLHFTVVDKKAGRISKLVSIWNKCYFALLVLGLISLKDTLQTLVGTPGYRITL
eIF4H inh retest = second read-out of eIF4H inh, no call of its own (marks repeat the call); inhibition, %; compound at 20 µM; confirmation average;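 mean of two retest wells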
PABP polyA inh retest = second read-out of PABP polyA inh, no call of its own (marks repeat the call); inhibition, %; compound at 20 µM; confirmation repeats;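 mean of two retest wells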
MT1-MMP act inh RFP = second read-out of MT1-MMP act inh, no call of its own (marks repeat the call); RFP signal change, %; measured here: RFP expression control read;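 0 = vehicle wells; hits needed this value within 50% of zero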
The depositor's hits bear a star; i = inactive; x = not tested or not shown. An excerpt; the hit share may differ from the screen's.

SMILES	MT1-MMP act inh	MT1-MMP act inh RFP	eIF4H inh	HIV Env fusion	PABP polyA inh	CSC inhib	Yeast UUG start	Rce1 inhib	others
CCC(CC)C(=O)Nc1ccc(C(=O)Nc2cc(C)on2)cc1	-1.9	1.6	0.5	-9.4	4.8	4.8	x	i
Cc1ccc2c(c1)cc(CN(Cc1cccnc1)C(=O)c1ccccc1)c1nnnn12	-0.6	-0.6	2.7	9.9	-5.3	-13.5	-3.9	i
FC(F)(F)c1cccc(CNC2c3ccccc3-c3ccccc32)c1	-0.6	-4.0	10.9	16.9	17.3	5.6	-2.9	i
O=C(CSc1nc2cc(Cl)ccc2s1)c1ccco1	-4.2	0.8	5.8	x	12.8	0.4	-12.1	i
COc1ccc2ccc(Oc3ncccn3)cc2c1	2.1	4.1	-4.0	-4.3	-2.3	x	-7.1	i
CC1CCCCN1S(=O)(=O)c1cccc2cccnc12 (configuration not stated)	-0.2	2.4	-2.6	-19.3	3.2	-9.1	-6.2	i
O=C(NCc1ccc(F)cc1)c1c(O)c2cccc3c2n(c1=O)CCC3	-1.4	0.5	0.1	x	-8.6	-2.6	-11.5	i
CC(=O)C1C(c2ccc(Br)cc2)c2c(noc2C)CC1(C)O (configuration not stated)	2.2	-1.2	-9.5	-0.8	-2.9	-5.9	-9.5	i
Clc1ccc(COn2c(-c3ccc(Cl)cc3)nc3ccccc32)cc1	-11.6	-5.5	-7.3	5.7	-2.5	41.8	-7.8	i
O=C(c1ccco1)N1CCN(C(=S)NCc2ccc(F)cc2)CC1	6.8	4.8	0.6	10.1	1.5	-8.1	2.1	i
CCOC(=O)c1sc(NC(=O)CCN2CCOCC2)c(C(=O)OCC)c1C	-3.3	5.2	-5.4	x	-2.1	3.2	-8.8	i
O=C(/C=C/c1ccccc1)NC1CCSC1=O (configuration not stated)	-1.4	3.7	-6.3	x	-1.8	0.6	x	i
CC1(CCc2ccccc2)NC(=O)N(CC(=O)Nc2ccc(S(N)(=O)=O)cc2)C1=O (configuration not stated)	2.7	5.4	4.3	16.6	44.0	-9.3	x	i
OC(CNCc1ccncc1)c1ccccc1 (configuration not stated)	2.4	-2.5	-0.5	-10.8	7.5	-16.8	-5.9	i
CS(=O)(=O)Nn1cnc2ccccc2c1=O	6.0	13.3	-12.7	x	1.3	x	-17.2	i
COc1ccc2nc(C)cc(N3CCOCC3)c2c1	3.0	-2.2	-3.5	-11.7	4.4	-10.2	6.8	i
Fc1ccc(Oc2nnnn2-c2ccccc2)cc1	-0.3	-2.3	-3.8	-11.1	7.5	-4.3	59.6	i
COCCN(C(=S)Nc1cccc(C)c1C)C(C)c1ccco1 (configuration not stated)	-1.6	0.7	5.7	18.5	2.6	-1.0	x	i
O=C(c1ccccc1)c1cccc(NC(=O)c2ccco2)c1	5.9	5.0	-5.2	x	-0.5	x	-6.5	i
COc1ccccc1Nc1nc(N)nc(CSc2nncn2C)n1	1.4	2.6	-3.3	9.8	-8.6	7.3	x	i

Of the compounds above, two contain a Cl atom.
SMILES	MT1-MMP act inh	MT1-MMP act inh RFP	eIF4H inh	HIV Env fusion	PABP polyA inh	CSC inhib	Yeast UUG start	Rce1 inhib	others
O=C(CSc1nc2cc(Cl)ccc2s1)c1ccco1	-4.2	0.8	5.8	x	12.8	0.4	-12.1	i
Clc1ccc(COn2c(-c3ccc(Cl)cc3)nc3ccccc32)cc1	-11.6	-5.5	-7.3	5.7	-2.5	41.8	-7.8	i

Further entries:
SMILES	MT1-MMP act inh	MT1-MMP act inh RFP	eIF4H inh	HIV Env fusion	PABP polyA inh	CSC inhib	Yeast UUG start	Rce1 inhib	others
CC(C)[C@H](NC(=O)c1ccccc1)C(=O)OCc1nc2scc(-c3ccccc3)c2c(=O)[nH]1	2.1	-9.1	2.9	-9.1	-5.4	4.0	-2.0	i
CN(C(=O)c1nc(-c2ccccc2)n(-c2ccccc2)n1)C1CCS(=O)(=O)C1 (configuration not stated)	0.9	5.6	-2.8	-6.3	3.4	-0.3	-8.3	i
Cc1ccc(NC(=O)CS(=O)CC(=O)N2CCN(C3CCCC3)CC2)cc1 (configuration not stated)	1.1	1.2	-1.8	18.9	3.6	4.3	-11.7	i
CCCC(=O)C1=C(O)C(C(=O)OC)C(C)(C)CC1=Nc1ccc(N)cc1 (configuration not stated)	9.1	5.8	10.1	6.7	-2.1	-7.9	-5.9	i
Nc1ccccc1Nc1cc(-c2ccccc2)nn1-c1cccc(Cl)c1	-15.7	0.0	6.4	x	4.1	39.9	x	i
COc1ccc(S(=O)(=O)N2CCN(C)CC2)cc1	0.5	0.3	-6.0	-38.0	-1.7	x	-18.3	i
CCCc1ccc(Oc2cc(NN3CCCCC3)c([N+](=O)[O-])cc2[N+](=O)[O-])cc1	-0.3	1.4	-0.3	17.5	5.2	-10.5	-10.2	i
CC(C)(C)C(=O)Cn1c(=O)n(-c2ccc(F)cc2F)c(=O)c2sccc21	1.5	4.3	5.0	30.1	-13.9	3.1	-5.3	i
Cc1cc(C(=O)N/N=C2\CC(=O)CC(C)(C)C2)c(C)n1-c1ccccc1	3.1	-2.5	7.4	-26.3	12.9	14.3	x	x
Cc1cc(C)cc(N2CCCn3c2nc2c3c(=O)n(CC(=O)OCc3ccccc3)c(=O)n2C)c1	3.1	-5.5	-8.9	x	-9.8	23.4	14.7	i
O=[N+]([O-])c1cc(S(=O)(=O)NC2=NCCCCC2)ccc1Cl	6.1	-0.1	0.3	5.6	-6.3	-10.0	-11.0	i
Cc1ccc(C2Nc3ccccc3C(=O)N2Cc2ccco2)cc1 (configuration not stated)	-8.9	-6.2	4.2	x	0.9	36.6	-5.8	i
COc1ccc(CCNC(=O)c2c(C)nn(-c3ccccc3)c2Cl)cc1OC	-1.3	1.5	-10.7	13.5	3.9	2.3	24.5	i
C=CCc1cccc2cc(C(=O)N(C)C)c(=O)oc12	6.1	2.8	0.7	x	6.1	-15.5	-33.1	i
CCOc1cc(C(=O)O/N=C(\N)c2ccc([N+](=O)[O-])cc2)cc(OCC)c1OCC	2.8	1.5	-2.9	-143.2	-1.6	-12.3	-16.8	i
O=C(O)c1c(-n2cccc2)sc2c1CCCC2	0.8	2.5	1.8	13.1	-4.0	-2.9	x	i
Cc1ccc(OCCSCc2nc3ccccc3[nH]2)cc1	1.4	-9.9	-9.0	x	-2.7	-3.9	2.9	i
COCc1ccc(CN2CCCCC2C(=O)Nc2ccc(Oc3ccccc3)nc2)o1 (configuration not stated)	-1.9	-0.3	-5.1	-6.1	-1.8	-7.8	-3.9	i
CCN1CCN(C(c2ccccc2)c2nnnn2Cc2ccc3c(c2)OCO3)CC1 (configuration not stated)	2.3	2.8	-2.4	4.4	-0.6	-15.0	-7.2	i
CSc1ccccc1NC(=O)Cn1ccsc1=N	3.5	3.1	2.6	-14.4	13.1	-17.3	x	i
Cc1c(Cl)cccc1NC(=O)C1COc2ccccc2O1 (configuration not stated)	1.3	0.9	-3.2	4.1	-1.8	-1.3	-15.2	i
O=C(c1cn(-c2ccccc2)nc1-c1cccc(Br)c1)N1CCOCC1	-2.4	-2.6	-0.1	-8.5	-4.5	-9.2	-5.5	i
COc1ccc(/C=C/C(=O)NC(=S)N2CCN(c3ccccn3)CC2)cc1	-2.6	-4.0	-3.3	20.3	-10.0	-0.3	-19.8	i
Cc1nnc(SCCn2c(N(C)Cc3ccccc3)nc3c2c(=O)[nH]c(=O)n3C)s1	0.0	-2.8	-0.1	-52.6	-0.2	-8.7	-5.6	i
Cc1cc(NC(=O)CCc2ccc(C)o2)no1	2.8	5.4	0.2	x	3.5	-17.8	-11.8	i
O=C(NCc1ccccc1F)C1CCCN(C(=O)NC2CCCCC2)C1 (configuration not stated)	-1.0	1.0	1.9	3.3	-1.6	15.3	-3.4	i
c1ccc(OCCNc2nc(NCC3CC3)nc3cc(-c4ccccc4)sc23)cc1	-17.3	-24.6	x	34.3	x	x	-14.4	x
O=c1[nH]c(=O)n([C@H]2C[C@H](O)[C@@H](CO)O2)cc1Br	3.9	7.3	x	x	x	-4.6	-13.9	x
CN(C)c1ccc(O)c2c1CC1CC3[C@@H](N(C)C)C(=O)C(C(N)=O)=C(O)[C@]3(O)C(=O)C1=C2O (some centres not stated)	-9.3	-4.1	110.7	73.4*	-2.5	-10.6	-1.6	i	eIF4H inh retest=-2.5;PABP polyA inh retest=3.8
Cc1onc(-c2c(F)cccc2Cl)c1C(=O)NCCO	0.1	2.4	0.2	-1.2	8.5	-5.1	x	i
CN(Cc1cccs1)C(=O)COc1cccc(-n2cnnn2)c1	2.3	2.9	0.0	-93.1	-4.6	x	x	i
CCOc1ccc(S(=O)(=O)N2CCCC(C(=O)NCc3cccnc3)C2)cc1 (configuration not stated)	-0.8	-0.1	10.3	-11.9	-3.1	-6.2	-8.3	i
COC(=O)c1cccc(NC(=O)CSc2nnnn2C)c1	1.4	3.7	2.9	x	-3.1	-21.6	-13.5	i
Cc1cc(Cl)ccc1OCC(=O)Nc1cccc(S(=O)(=O)N2CCCC2)c1	-2.2	-7.1	x	0.0	x	x	-13.6	x
C/C(=N\NC(=O)c1csc(C)c1C)c1ccc(C)s1	-1.3	2.1	1.9	x	12.6	3.9	-10.6	i
O=C(CCl)Nc1ccc(Oc2cnc3ccccc3n2)cc1	-10.7	-9.8	2.5	55.5*	3.5	-0.5	-16.4	i
CN1CCN(C(=O)c2cccc(COc3cc(Cl)ccc3Cl)c2)CC1	3.4	-0.4	-0.4	-39.9	-1.1	37.8	x	i
Cc1cc(C(=O)N/N=C/C=C/c2ccccc2[N+](=O)[O-])c(C)o1	1.0	1.0	-4.0	-21.3	-3.5	-5.0	-20.8	i
CCOc1ccc(NC(=O)NNC(=O)C(C)Oc2ccccc2OC)cc1 (configuration not stated)	-1.0	1.8	-7.6	-13.6	0.0	-15.0	-12.3	i
Cc1ccc(C)c(SCC(=O)N(C)CC(=O)Nc2ccc(N3CCOCC3)cc2)c1	2.5	5.0	x	1.6	x	3.0	x	i

Ordered by molecular weight (low to high): part of the list above.
SMILES	MT1-MMP act inh	MT1-MMP act inh RFP	eIF4H inh	HIV Env fusion	PABP polyA inh	CSC inhib	Yeast UUG start	Rce1 inhib	others
Cc1cc(NC(=O)CCc2ccc(C)o2)no1	2.8	5.4	0.2	x	3.5	-17.8	-11.8	i
COC(=O)c1cccc(NC(=O)CSc2nnnn2C)c1	1.4	3.7	2.9	x	-3.1	-21.6	-13.5	i
Cc1cc(Cl)ccc1OCC(=O)Nc1cccc(S(=O)(=O)N2CCCC2)c1	-2.2	-7.1	x	0.0	x	x	-13.6	x

(more compounds)
SMILES	MT1-MMP act inh	MT1-MMP act inh RFP	eIF4H inh	HIV Env fusion	PABP polyA inh	CSC inhib	Yeast UUG start	Rce1 inhib	others
CC1(C)C2CCC1(C)C(OC(=O)C[n+]1ccccc1)C2 (configuration not stated)	-6.0	-3.2	3.0	3.1	2.5	-0.5	-7.8	i
Cc1ccc(NCC(=O)Nc2cccc(S(=O)(=O)N(C)C)c2)c(Cl)c1	6.9	-7.9	1.2	24.2	-7.7	-4.7	x	i
O=c1ccc(S(=O)(=O)N2CCC(Cc3ccccc3)CC2)c[nH]1	0.7	-1.3	8.4	-50.5	-3.2	-0.5	-5.9	i
CCOc1cccc(Cc2c[nH]c(=O)[nH]c2=O)c1	0.0	3.7	x	22.7	x	x	-19.0	x
CCN=C1SC(CC(=O)NC(C)C)C(=O)N1CC (configuration not stated)	-0.2	0.9	0.3	-43.0	-2.7	-3.1	-11.2	i
O=C(Nc1ccccc1Cl)c1cccc(COc2cc(Cl)ccc2Cl)c1	4.8	-0.2	0.5	-62.4	-1.5	21.5	-17.2	i
CC1(C)OC(=O)C(=NNc2ccc(C(=O)O)cc2)C(=O)O1	0.9	0.6	0.9	3.4	1.2	-15.0	x	i
